# Bioassay records (PubChem)
# Vif A3G = inhibitors of Vif binding to APOBEC3G peptide, primary screen, biochemical, TR-FRET, GST-Vif 1-94, biotin-A3G peptide, dose response retest (AID 1117319); TR-FRET GST-Vif / biotin-A3G peptide binding; higher % means a stronger effect; test concentration not given here; strong numbers were not always called active; 0.57% of 260,000 active; Virion infectivity factor (Human immunodeficiency virus type 1 group M subtype B (isolate …; inhibition, %; hits with a dose series show IC50 in µM;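 active means above the screen mean plus three standard deviations and confirmed in dose response; inconclusive means results disagree or hit not tested in dose response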;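 further: Vif residues 1-94 fused to GST binding biotinylated APOBEC3G peptide 110-148; 0% = full assay without inhibitor and 100% = GST in place of GST-Vif; retest series ran down from 100 µM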
# E coli growth = E. coli growth inhibition, primary screen, OD600 | Escherichia coli growth, 23 h; active compounds read low | OD600 absorbance (concentration not given with the values) | 0.21% of 330,000 active;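 active means OD600 absorbance below the run mean of sample wells minus 3.6 SD, in any replicate, cut at about 0.56 in these data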;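 further: stock transfer was 300 nL into about 60 µL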
# HNF4A DNA FP = change in binding of human HNF4A to DNA, primary screen, biochemical, fluorescence polarization, FITC-DNA | Hepatocyte nuclear factor 4-alpha (Homo sapiens), P41235 | 1 h | activity change, % at 10 µM | 0.3% of 360,000 active | AID 1224865, 2016; in the data active means activity change above about 30%, passing the limit was not always enough;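 further: controls were the assay level and a saturating level of protein; the project sought stronger binding though the title names inhibitors; some compounds called inactive have numbers as strong as hits; positive values seem to mean higher polarization but the record does not say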
# UCH37 DUB inh = inhibitors of human UCH37 deubiquitinase, primary screen, biochemical, Ub-AMC cleavage, fluorescence; purified proteasome/UCH37; 0.33% of 330,000 active; Ubiquitin carboxyl-terminal hydrolase isozyme L5 (Homo sapiens), Q9Y5K5; inhibition, % (test concentration not listed);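 active means mean of two replicates above 20%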;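 further: 0% = compound-free wells with enzyme and 100% = wells lacking proteasome; stock transfer was 100 nL into about 20 µL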
# Target sequence (Q9Y5K5 whole entry, looked up): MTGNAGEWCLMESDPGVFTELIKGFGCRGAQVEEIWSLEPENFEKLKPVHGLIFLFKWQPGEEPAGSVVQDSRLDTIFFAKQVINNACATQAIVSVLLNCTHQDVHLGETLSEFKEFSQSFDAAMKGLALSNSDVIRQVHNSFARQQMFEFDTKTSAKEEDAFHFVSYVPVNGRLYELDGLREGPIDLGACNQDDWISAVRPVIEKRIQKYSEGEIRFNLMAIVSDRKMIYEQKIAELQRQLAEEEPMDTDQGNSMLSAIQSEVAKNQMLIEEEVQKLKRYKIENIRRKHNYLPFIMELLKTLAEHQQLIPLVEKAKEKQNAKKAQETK
#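 Material: human UCH37 enzyme supplied as purified proteasome complex / Amount: 0.15 nM proteasome as dispensed / Buffer or medium: pH 7.4 Tris-HCl (50 mM) with ovalbumin, ATP-MgCl2, DTT / Times: preincubation 30 min, reaction 25 min, room temperature / Technique: AMC fluorescence from Ub-AMC cleavage, excitation 355 nm, emission 460 nm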
# LANA-H2B inh = blockers of LANA interaction with H2A/H2B – biochemical, FP readout, HTS, primary screen; Protein LANA1 (Human herpesvirus 8 type P (isolate GK18)), Q9QR71; cell-free LANA-H2A/H2B peptide, fluorescence polarization; inhibition, % (no concentration beside the values); 0.6% of 320,000 active; in the data active means inhibition mostly above about 10%, no sharp cut-off; inactive means mostly below about 6.7%;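 further: stock transfer was 7.5 nL into about 10 µL; 0% = median of vehicle wells and 100% = median of positive control wells; one replicate is shown; the record names a cut of 25% in any replicate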
# Bfl-1 A1 inh = caspase 3/7 activation in MEF A1-2A-BIM cells, primary screen, A1 inhibitor project, cell-based, luminescence, HTS | Caspase-Glo 3/7 luminescence, 3 h; percent of clofoctol response, vehicle zero | caspase activation, % (concentration not given with the values) | 0.066% of 330,000 active | AID 2462, 2010;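 active means over half of replicate activation scores above 10%, or exactly half above 10 with the replicate mean above 10; inconclusive means replicate mean below 10 yet half the replicates above 10; inactive means over half of replicates below 10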;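 further: wells of about 30 µL received 50 nL stock; many hits fall short of the cut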
# Beta2AR agonist = beta2AR agonists driving receptor internalization, primary screen, cell-based, FAP fluorogen, flow cytometry. Beta-2 adrenergic receptor (Homo sapiens), P07550. Am2.2-beta2AR cells; reference of the scale not given here. response, % (test concentration not listed). 0.43% of 340,000 active. AID 504454, 2011;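 active means response above a set limit, near 3 SD of response in nonfluorescent compounds, cut at about 42% in these data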;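 further: stock transfer was 100 nL into about 11 µL; a reference agonist was the positive control; negative values mostly stem from fluorescent compounds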
# Target sequence (P07550 whole entry, looked up): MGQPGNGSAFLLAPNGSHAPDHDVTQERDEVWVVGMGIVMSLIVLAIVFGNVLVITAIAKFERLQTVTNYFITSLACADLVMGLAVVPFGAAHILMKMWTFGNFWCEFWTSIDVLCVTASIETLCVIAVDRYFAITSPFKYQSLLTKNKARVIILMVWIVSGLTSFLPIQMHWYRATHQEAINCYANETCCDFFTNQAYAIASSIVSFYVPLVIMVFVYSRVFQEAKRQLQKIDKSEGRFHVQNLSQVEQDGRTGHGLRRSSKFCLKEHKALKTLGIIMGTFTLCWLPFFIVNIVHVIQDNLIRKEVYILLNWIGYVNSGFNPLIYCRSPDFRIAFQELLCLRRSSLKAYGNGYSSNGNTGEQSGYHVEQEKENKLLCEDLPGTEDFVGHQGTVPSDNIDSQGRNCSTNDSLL
# Active calls of the source: *; ? = inconclusive; / = no result given; & = joins results of further samples.
Molecule	Vif A3G	E coli growth	HNF4A DNA FP	UCH37 DUB inh	LANA-H2B inh	Bfl-1 A1 inh	Beta2AR agonist
CC1CCCCC1NC(=O)CO/N=C/c1ccccc1OC(F)F (stereo unspecified)	/	/	-1.1	/	3.1	-0.4	-1
COc1cccc(C(=O)NC2CCCc3c2cnn3-c2ccc(C)c(C)c2)c1OC (stereo unspecified)	/	0.66	-0.2	1.1	-0.4	-1.0	8
Cc1ccc(C)c(NC(=O)c2ccc3c(c2)N(Cc2ccc(F)cc2)C(=O)CS3=O)c1 (stereo unspecified)	?	0.7	1.6	2.8	-1.5	0.4	0
Cc1ccc(NC(=O)CN2C(=O)S/C(=C\c3ccc(C(=O)O)cc3)C2=O)cc1	3%	0.69	20	8.0	3.2	-1.1	3
CCCCn1c(N)c(N(CCOC)C(=O)c2cc(C)oc2C)c(=O)[nH]c1=O	-2%	0.72	-0.9	-3.4	-0.1	0.7	-5
Cc1nn(CC(=O)NC2CCC(C)CC2)c(C)c1[N+](=O)[O-] (stereo unspecified)	/	0.65	4.2	2.3	-1.6	-0.2	-7
CCCCNC1c2ccccc2C(=O)N1Cc1ccccc1 (stereo unspecified)	-3%	0.67	1.3	-1.2	2.1	0.9	2
CN(C)S(=O)(=O)c1cc(NC(=O)CSc2cccc[n+]2[O-])ccc1Cl	-1%	0.65	3.6	2.2	-473	-0.6	0
CCOc1ccccc1NC(=O)c1cc(S(=O)(=O)N2CCC3(CC2)OCCO3)ccc1F	-3%&-6%	0.73	-1.9	-15	-0.1	0.0	-9
Cc1ccc(S(=O)(=O)N2CCN(C(=O)CN3C(=O)c4ccc([N+](=O)[O-])cc4C3=O)CC2)cc1C	-1%	0.69	-0.5	2.5	0.3	0.9	7
COC(=O)c1cc(C(=O)NC(C)C2CC3CCC2C3)cc([N+](=O)[O-])c1 (stereo unspecified)	/	0.52*	0.9	2.7	-1.2	0.6	-4
CCCS(=O)(=O)N1CCCC(C(=O)Nc2ccc3c(c2)CCC3)C1 (stereo unspecified)	7%	0.7	0.6	4.4	0.4	0.0	5
O=C(CN1C(=O)c2ccccc2S1(=O)=O)c1ccc2c(c1)OCCCO2	-5%	0.63	3.3	4.2	7.3	-5.7	-4
O=C(Nc1ccc(F)cc1)C(c1ccccc1)N1CCN(C(=O)c2ccco2)CC1 (stereo unspecified)	15%	0.64	-2.5	0.4	1.3	1.0	-4
Cn1nc(C(=O)NNC(=O)c2cccc(Cl)c2)c2ccccc2c1=O	4%	0.71	-0.5	3.4	1.3	0.4	1
COc1ccccc1-c1cc(C(F)(F)F)nc(N2CCCC2)n1	4%	0.69	-2.4	-32	1.4	0.3	4
Cc1ccc(N(C(=O)Cc2cccs2)C(C(=O)NC2CCCC2)c2ccncc2)cc1 (stereo unspecified)	-11%	0.65	5.2	1.6	-3.8	-0.7	3
O=C(C1CCN(C2CC(=O)N(c3ccc(Cl)cc3)C2=O)CC1)N1CCOCC1 (stereo unspecified)	14%	0.73	1.8	-2.7	3.0	0.0	-2
CN(C(=O)COC(=O)c1ccccc1Cc1ccccc1)C1CCS(=O)(=O)C1 (stereo unspecified)	1%	0.72	2.8	-1.4	3.6	-0.2	-7
COc1ccc(C(=O)NCCCOC(=O)c2ccc(OC)cc2)cc1	-4%	0.73	-4.1	-0.3	-1.8	-0.5	2
CN(Nc1cccc(Cl)c1)c1cccc(Cl)c1	2%	0.61	-2.3	1.3	/	/	14
COc1ccc(C2CC(c3ccc(C)cc3)=NN2C(=O)CCC(=O)O)cc1OC (stereo unspecified)	/	/	-0.8	/	-3.4	0.9	8
CCOC(=O)N1CCC(n2c(=S)[nH]c3cc(OCC)c(OCC)cc3c2=O)CC1	-7%	0.75	-1.3	6.7	/	/	-3
O=C(Nc1nnc(-c2ccc3c(c2)CCCC3)o1)c1ccccc1Cl	5%	0.78	-1.4	4.3	-0.9	1.5	12
COC(=O)c1ccc(COc2ccccc2/C=N/NS(=O)(=O)c2ccc(C)cc2)cc1	-5%	/	1.4	/	-4.1	0.7	-11
Cc1ccc(S(=O)(=O)N(Cc2cccc([N+](=O)[O-])c2)C(=O)N2CCN(C)CC2)cc1	-2%	0.69	0.9	1.6	/	/	-12
O=C(CC1C[C@H](C(=O)N2CCOCC2)[C@@]2(CCC3CCCC3)c3[nH]c4ccccc4c3CCN2C1=O)NCCCn1ccnc1 (stereo partly specified)	0%	0.7	0.4	5.5	-2.0	1.0	-8
Cn1c(C(=O)NCCCN2CCc3ccccc3C2)cc2c(=O)n(C)c3ccccc3c21	2%	0.76	1.9	-3.7	1.3	-0.4	14
COc1ccc(C(=O)NNC(=S)NC(=O)c2cc(-c3ccccc3)nc3ccccc23)cc1	7%	0.7	-3.0	7.3	-4.0	-0.5	-1
CC(OC(=O)c1cc(Br)ccc1O)C(=O)NCc1ccc2c(c1)OCO2 (stereo unspecified)	-163%	0.64	1.4	-1.8	2.1	1.6	-4
O=C(NCc1ccccn1)C1CCN(S(=O)(=O)c2cc(Cl)ccc2Cl)CC1	/	0.69	-0.5	3.3	4.4	1.2	-12
COC(=O)N(NC(=O)C(O)(c1ccccc1)c1ccccc1)c1ccc(C)cc1	1%	0.71	-3.1	4.5	1.5	?	2
COc1ccccc1NC(=O)COc1cccc2c1CCNC2=O	1%	0.68	3.0	6.3	2.0	0.8	14
O=C(NC1CCCC1)c1ccc(CS(=O)Cc2ccc(Cl)cc2)o1 (stereo unspecified)	-3%	0.72	2.4	-2.2	-0.1	0.9	-6
O=C(NC1CC2CCC(C1)N2Cc1ccccc1)c1ccccc1Cl (stereo unspecified)	/	0.7	-4.1	2.3	-3.4	0.0	-4
CC1CCC(NC(=O)CSc2nnc(-c3cccnc3)o2)CC1 (stereo unspecified)	-1%	0.66	0.1	3.2	-3.3	0.6	-5
CC(C)N(C(=O)[C@H]1CC(CC(=O)NCc2ccco2)C(=O)N2CCc3c([nH]c4ccccc34)[C@]12C)C(C)C (stereo partly specified)	-4%	0.71	2.3	2.4	/	-0.6	3
Cc1ccc(N(Cc2cc(=O)[nH]c3ccccc23)C(=O)C(C)C)c(C)c1	-59%	0.71	0.6	0.3	-2.3	1.7	-7
COc1ccc(-c2csc(N3C(=N)SCC3=O)n2)cc1	16%	0.66	-1.1	3.4	0.7	-0.7	23
CC(Sc1ccccn1)C(=O)Nc1ccc2c(c1)OCO2 (stereo unspecified)	-1%	0.69	0.1	1.4	4.1	1.0	19
CC1(C)Cc2c(cnn2-c2ccc(F)cc2)C(NC(=O)CCN2CCCCC2=O)C1 (stereo unspecified)	/	0.69	3.5	3.8	1.6	0.3	-1
CCOc1ccccc1C(=O)Nc1nnc(Cc2ccc(OC)c(OC)c2)s1	/	0.7	4.2	6.7	-7.0	-0.7	10
ON1C2CCCCC2N(O)C1c1ccccc1C(F)(F)F (stereo unspecified)	10%	0.68	1.1	3.5	-3.9	0.2	-3
O=C(N/N=C/c1cccs1)c1ccc2nc[nH]c2c1	25%	/	4.4	/	-2.2	0.6	-6
NS(=O)(=O)c1cccnc1Nc1cccc(Cl)c1	-1%	0.78	-0.7	4.4	2.3	0.6	-3
CCCN1C(=O)/C(=N\OCC(=O)NCC(F)(F)F)c2ccccc21	/	/	-4.0	/	2.6	0.5	0
Cc1cc(NC(=O)c2ccccc2)n(-c2nc3ccccc3[nH]2)n1	-8%	0.68	1.9	-17	1.1	-1.0	-8
CC(C(=O)Nc1ccccc1-c1ccccc1)N1CCN(S(=O)(=O)c2ccccc2)CC1 (stereo unspecified)	23%	0.77	-0.1	2.9	-0.6	0.0	9
Cc1ccc(C)c(NC(=O)C(=O)NCc2ccccn2)c1	/	0.71	1.1	1.1	6.1	-0.4	-1
CC(C)Cc1nnc(NC(=O)C2CCCC2)s1	-1%	0.65	4.0	0.5	4.1	0.7	-6
CN(C)CCCNC(=O)C(=O)Nc1ccc2c(c1)N(S(=O)(=O)c1cccs1)CCC2	7%	0.68	-2.2	3.4	1.7	0.2	14
C=CCNC(=S)N(CC=C)C1CCS(=O)(=O)C1 (stereo unspecified)	-4%	0.62	-0.4	1.0	-7.6	0.2	4
O=C(/C=C/c1ccccc1)N(Cc1cccs1)C1CCS(=O)(=O)C1 (stereo unspecified)	8%	0.69	-3.1	3.3	3.5	0.3	-4
Cc1cc(C(=O)COC(=O)c2ccc(Cl)c(S(N)(=O)=O)c2)c(C)n1C1CC1	3%	0.7	-0.5	3.5	-2.6	0.2	8
CC[C@H](C)[C@H](NC(N)=O)C(=O)Nc1ccc(S(=O)(=O)NC(C)C)cc1	-7%	0.71	-0.2	4.1	-2.3	-0.9	4
Cc1csc2nc(O)c(C(=O)NCCCc3ccccc3)c(=O)n12	-2%	0.63	4.3	0.1	-2.4	0.2	-4
O=C(Nc1ccccc1)C1=C[C@H](c2csc3ccccc23)C[C@H](OCCCCO)O1	5%	/	4.9	1.6	3.8	-0.3	2
CCc1ccc(NC(=O)CCc2nnc3ccc(N4CCCC4)nn23)cc1	/	0.7	0.2	8.0	-2.2	0.8	-7
Cc1cccc(NC(=O)CSC2=NN3CCCC(=O)N=C3S2)c1C	-4%	0.76	-3.5	0.4	3.6	0.5	-5
Cc1cc(C)c(OCC(=O)Nc2cc(C(=O)O)cc(C(=O)O)c2)cc1C	/	0.64	0.9	3.3	1.7	1.4	3

# Next part
Molecule	Vif A3G	E coli growth	HNF4A DNA FP	UCH37 DUB inh	LANA-H2B inh	Bfl-1 A1 inh	Beta2AR agonist
OC1(c2ccccc2)CNCCc2ccccc21 (stereo unspecified)	2%	0.68	1.0	3.2	1.7	-0.6	1
CCC(C)NC(=O)C1CN(S(=O)(=O)c2ccccc2)CCN1S(=O)(=O)c1ccccc1 (stereo unspecified)	30%	0.74	0.2	-0.4	-5.2	0.7	4
O=C(NCc1ccccc1)NC1CCS(=O)(=O)C1 (stereo unspecified)	/	0.73	-3.6	0.6	8.3	-0.1	2
COc1cc2c(cc1NC(=O)COC(=O)[C@@H](NC(=O)c1ccccc1)C(C)C)oc1ccccc12	/	0.73	2.9	-4.7	25*	-0.7	-3
O=C(Nc1cccc2ncccc12)c1ccc(OCc2ccccc2)cc1	-8%	0.68	2.3	2.8	-2.8	-0.2	3
COc1ccccc1-n1c(CNc2ccc(F)cc2)nnc1SCC(=O)Nc1cc(C)on1	1%	0.76	1.6	-3.4	2.5	0.4	-18
COc1ccc(Nc2nnc(C)c3ccccc23)cc1	/	0.65	-0.5	6.0	5.8	-0.8	-5
Cc1cccc(NS(=O)(=O)c2cc(C(=O)NCCC3=CCCCC3)ccc2Cl)c1	-2%	0.74	1.1	21*	-4.5	0.9	8
COc1ccc(NC(=O)CN(Cc2ccccc2)Cc2ccccc2)cc1S(N)(=O)=O	?	0.67	-4.7	0.0	5.8	0.6	-12
CSC1=NCCN1C(=O)C(C)(C)Oc1ccc(Cl)cc1	-7%	0.73	5.3	0.3	-2.0	-0.1	-8
CSc1ccccc1NC(=O)CN(C)CC(=O)Nc1ccc(Cl)cc1F	/	0.71	3.0	1.6	3.4	0.7	1
